PKD1 inh = inhibitors of human PKD1 kinase. Q15139. PKD1 kinase fluorescence polarization assay. inhibition, %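 (about 10 µM by stock and volumes)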. hit rate 0.056% among 200,000;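 active = inhibition of 50% or more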;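 note: controls were vehicle for no effect and a reference inhibitor for full effect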
GALR2 agonist = GALR2 (human) receptor agonism; O43603; GALR2-expressing cells, agonist activation read-out; activation, %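 (tested at 5 µM)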; hit rate 0.48% among 140,000; AID 803;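 active = above mean plus 3 SD of all compounds, about 5% in these data, not always enough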;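 note: 0% = vehicle buffer wells and 100% = reference agonist at full effect; tested in CHO reporter cells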
Target sequence (O43603 whole entry, looked up): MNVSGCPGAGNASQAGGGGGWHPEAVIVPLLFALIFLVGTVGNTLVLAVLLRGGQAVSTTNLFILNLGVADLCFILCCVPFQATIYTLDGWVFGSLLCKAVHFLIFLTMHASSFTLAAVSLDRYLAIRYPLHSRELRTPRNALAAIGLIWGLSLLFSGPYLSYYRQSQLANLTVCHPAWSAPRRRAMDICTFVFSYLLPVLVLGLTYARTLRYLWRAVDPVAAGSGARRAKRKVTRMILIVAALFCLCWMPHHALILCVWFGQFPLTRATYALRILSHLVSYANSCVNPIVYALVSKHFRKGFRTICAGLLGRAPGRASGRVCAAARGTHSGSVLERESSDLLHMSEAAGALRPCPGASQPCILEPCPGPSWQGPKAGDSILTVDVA
RGS16-Gao HTS = regulators of human RGS16-Galphao interaction; hit rate 0.38% among 220,000; O15492+P09471; binding response (% of control), % at 10 µM; bead-based flow cytometry RGS16-Galphao binding, fluorescence; actives lie on both sides;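 active = below 25% or above 175%, edge rows of some plates excepted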;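 note: Galphao activated by GDP with aluminum fluoride before binding; 100% = wells without compound and 0% = beads without RGS; some results beyond the cut were filed as inactive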
Target sequence (O15492 whole entry, looked up): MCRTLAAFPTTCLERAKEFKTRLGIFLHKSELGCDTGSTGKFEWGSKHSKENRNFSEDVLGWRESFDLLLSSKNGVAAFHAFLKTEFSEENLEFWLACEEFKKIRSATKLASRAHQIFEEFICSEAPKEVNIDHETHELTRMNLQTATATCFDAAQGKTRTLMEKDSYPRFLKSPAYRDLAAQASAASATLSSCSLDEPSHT
Target sequence (P09471 whole entry, looked up): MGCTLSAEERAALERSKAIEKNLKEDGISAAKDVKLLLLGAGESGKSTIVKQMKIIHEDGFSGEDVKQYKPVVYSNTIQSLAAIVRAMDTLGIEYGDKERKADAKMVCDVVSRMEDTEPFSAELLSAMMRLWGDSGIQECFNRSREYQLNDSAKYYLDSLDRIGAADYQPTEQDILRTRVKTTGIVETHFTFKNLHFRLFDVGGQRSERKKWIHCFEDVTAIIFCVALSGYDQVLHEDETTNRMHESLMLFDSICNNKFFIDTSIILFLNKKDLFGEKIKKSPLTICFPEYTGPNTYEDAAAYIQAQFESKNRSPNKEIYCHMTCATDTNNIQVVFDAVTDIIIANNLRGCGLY
Insulin prom inh = TRM-6 insulin promoter activity inhibition; inhibition, % at 2 µM; TRM-6 cells (human fetal islet line), insulin promoter-eGFP reporter, imaging; reporter expression induced with tamoxifen; hit rate 0.9% among 130,000; AID 1273;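 active = inhibition above the mean plus 3 SD, with well images judged a real hit on visual review, cut at about 60% in these data, passing the limit was not always enough; inconclusive = inhibition over the cutoff but images rejected on review; inactive = inhibition not above the cutoff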
HSV replic up = HSV replication enhancement. HSV replication augmentation in cells, fold increase. hit rate 0.005% among 220,000. maximum fold increase;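 active = peak rise of 1.5-fold or more in the series; inconclusive = self-fluorescent or not available for retest; tested in PC3 cells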;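 note: first round at 10 µM; read as green reporter fluorescence; hits show the peak of a series up to 25 µM; 1 = signal of infected wells without compound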
Insulin prom inh cell count = recorded beside Insulin prom inh, whose call it bears; normalized cell count, %; measured here: cell count, toxicity; reference of the scale not given here;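 cells exposed to compound for 48 h; stained nuclei by imaging scaled within each plate; lower means fewer cells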
HSV replic up primary fold = second read-out of HSV replic up, no call of its own (marks repeat the call); fold increase; compound at 10 µM; measured here: primary screen fold increase 10 uM; tested in PC3 cells;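 GFP signal in the first replicate; 1 = infected wells without compound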
* hit, by the source's call; i = inactive; ? = inconclusive; nt = no result given.

SMILES	PKD1 inh	GALR2 agonist	RGS16-Gao HTS	Insulin prom inh	Insulin prom inh cell count	HSV replic up	HSV replic up primary fold
CC(C)=CCC(C)(C)C1OCCN1C(=O)Nc1ccccc1 (stereo not drawn)	-11	-2.2	109	9	122	i	1.1
CCOc1cc(-c2cc(N)n[nH]2)cc(OCC)c1OCC	-9	-0.2	106	nt	nt	nt	nt
Cc1ccc(-c2noc(CN(C(=O)CCCCCN3C(=O)c4ccccc4C3=O)C(C)C)n2)cc1	-1	-3.5	74	-10	91	i	0.93
COc1ccccc1NC(=O)/C=C\C(=O)O	-8	nt	32	100*	38*	i	0.94
CN/N=C(\Cc1nc2ccccc2[nH]1)c1ccc([N+](=O)[O-])cc1	2	nt	106	nt	nt	i	0.96
COc1ccc(NC(=O)CCC(=O)OCC(=O)c2ccc(Oc3ccc([N+](=O)[O-])cc3)cc2)cc1	1	-2.0	93	-6	112	i	0.99
CC/C(=N\NC(=O)Nc1nonc1N)c1ccc(OC)c(OC)c1	nt	nt	103	nt	nt	i	0.98
O=C(Nc1ccc(Br)cc1)c1cccn1-c1ncc(C(F)(F)F)cc1Cl	16	-3.5	106	-6	136	i	1.1
COC(=O)c1cccc(NC(=O)CSc2nnc(C)n2Cc2ccccc2)c1	9	-1.9	30	-9	83	i	1
NS(=O)(=O)c1ccc(CCNC(=O)C(=O)NCC2OCCN2C(=O)c2ccc3c(c2)OCO3)cc1 (stereo not drawn)	2	nt	102	nt	nt	i	0.95
O=S(=O)(Cc1cc(Sc2ccccc2)nc(-c2ccccc2)n1)c1ccccc1	-7	-1.3	101	-70	44	i	1.1
CCCNCc1nnc(-c2ccccc2Cl)o1	-9	-1.4	107	57	92	i	0.97
C=CCOc1ccc(/C(O)=C2/C(=O)C(=O)N(CCCn3ccnc3)C2c2ccco2)cc1 (stereo not drawn)	-10	nt	101	nt	nt	i	0.96
CCC1(C)N(O)C(C)(C)C(c2ccc(F)cc2)=[N+]1[O-] (stereo not drawn)	-2	-0.2	101	16	43	i	1
CCN(CC)S(=O)(=O)c1ccc(NS(=O)(=O)c2ccc(O)c([N+](=O)[O-])c2)cc1	-3	0.4	98	-20	105	i	0.94
Cc1nn(C)cc1S(=O)(=O)N1CCN(Cc2ccccc2Cl)CC1	1	nt	93	-48	120	i	1
O=c1[nH]c(C(F)(F)F)nc2c1nnn2Cc1ccccc1F	0	-1.2	111	-3	92	i	0.92
CCN1CCN(CC(=O)c2c[nH]c3ccccc23)CC1	-1	-0.1	116	-65	32	i	1
CC(=O)Nc1ccc(S(=O)(=O)Nc2cc(C)ccn2)cc1	-7	nt	105	nt	nt	i	0.88
Cc1ccc(C)c(-c2nc3cc(N)ccc3o2)c1	3	-1.2	90	6	95	i	1.1
Cn1cnc(S(=O)(=O)Nc2ccc3c(c2)OCCO3)c1	nt	nt	102	nt	nt	i	0.97
COc1ccc(/C=N/NC(=O)COc2ccccc2-c2ccccc2)cc1	-5	1.4	98	-26	5	i	0.84
O=[N+]([O-])c1ccc(CN2CCSCC2)cc1	-4	nt	106	nt	nt	i	0.82
OCC1(Cc2ccccc2)CCN(C2CCN(c3ccccc3F)CC2)CC1	-1	nt	103	nt	nt	i	0.84
N#Cc1cnn2c1nc(N1CCCCC1)c1ccccc12	15	-5.9	100	-107	94	i	1
CCOCCCNC(=O)c1cn(C)c2ccc(S(=O)(=O)N(C)C3CCCCC3)cc2c1=O	5	-2.3	30	nt	nt	nt	nt
Cc1nnsc1NC(=O)OCC(C)(C)C	1	-0.8	105	-3	120	i	0.86
CCN(CC)C(=O)CSc1ncnc2sc(C)c(C)c12	3	nt	96	nt	nt	i	1.1
CSc1nc(C)cc(Oc2ccccc2)n1	5	nt	99	nt	nt	i	0.95
COCCNC(=O)C(C)N(c1ccc(OC)cc1)S(C)(=O)=O (stereo not drawn)	3	0.4	98	-33	75	i	0.84
CC(C)C(=O)NNc1nc2ccccc2s1	4	-1.2	109	11	123	i	0.74
CCN(CC)S(=O)(=O)c1cccc(C(=O)NC(Cc2c[nH]c3ccccc23)c2nnc3n2CCC3)c1 (stereo not drawn)	-5	-1.1	160	8	53	i	0.99
CC(=O)Oc1ccc(N2C(=O)CC(N3CCOCC3)C2=O)cc1 (stereo not drawn)	-3	-1.6	96	nt	nt	i	0.98
O=C(CCl)N(Cc1cccc([N+](=O)[O-])c1)c1cccc(Cl)c1	-1	nt	101	nt	nt	i	1.1
CC(=O)Nc1nc2ccc(Br)cc2s1	-1	-2.2	99	-42	135	nt	nt
O=C(NCCc1ccccc1)c1cc(-c2ccco2)on1	-4	0.6	100	49	94	i	1.6
O=C(C1CCN(S(=O)(=O)N2CCOCC2)CC1)N1CCN(c2ccc(F)cc2)CC1	-7	nt	93	-14	102	i	1
Cn1cccc1-c1nc2ccccc2n1Cc1ccccc1	-4	0.5	94	-41	96	i	1.1
Cc1ccc(-c2nnc3ccc(SCC(=O)N4CCCc5ccccc54)nn23)cc1	-6	1.2	88	nt	nt	i	0.98
O=S(=O)(NCC1CCCO1)c1ccc(S(=O)(=O)N(Cc2ccc(F)cc2)Cc2ccccn2)cc1 (stereo not drawn)	-11	-1.8	102	nt	nt	i	0.96
Cn1c(=O)c(C(=O)CN2CC(=O)Nc3ccccc32)c(N)n(Cc2ccccc2)c1=O	-5	nt	114	-50	108	i	1
Brc1ccc(OCCOc2cccc3cccnc23)cc1	-19	0.4	105	25	160	nt	nt
CC1=C(C(=O)OCc2ccccc2)C(c2ccc3ccccc3c2)NC(=O)N1CCCCCC(=O)O (stereo not drawn)	-2	0.1	107	30	122	i	0.7
CCN(C(=O)CN1CCN(c2ccc(OC)cc2)CC1)c1c(N)n(Cc2ccccc2)c(=O)[nH]c1=O	0	0.0	111	nt	nt	i	1
COC(=O)CC1C(=O)NCCN1C(=O)CSc1nnc(Nc2ccc(C)cc2)s1 (stereo not drawn)	1	-3.3	103	45	110	i	1
Cc1ccccc1NC(=O)Cn1c(=O)n(Cc2ccccc2)c(=O)c2c(C)c(C)sc21	-8	0.0	76	-50	94	i	1.2
COc1ccc(-n2c(Cc3cccn3C)nnc2SCC(=O)NC2CCCCC2)cc1	-1	-1.0	92	nt	nt	i	1
CCOc1cc(/C=N/NC(N)=O)cc(Br)c1OCc1ccccc1F	-4	0.1	97	17	159	i	0.79

2 entries from above, with two lines to a compound.
Below each compound: PKD1 inh	GALR2 agonist	RGS16-Gao HTS	Insulin prom inh	Insulin prom inh cell count	HSV replic up	HSV replic up primary fold
> COc1ccc(/C=N/NC(=O)COc2ccccc2-c2ccccc2)cc1
  -5	1.4	98	-26	5	i	0.84
> O=[N+]([O-])c1ccc(CN2CCSCC2)cc1
  -4	nt	106	nt	nt	i	0.82

(list continues)
SMILES	PKD1 inh	GALR2 agonist	RGS16-Gao HTS	Insulin prom inh	Insulin prom inh cell count	HSV replic up	HSV replic up primary fold
COc1cc(CN2CCC(N3CCC(C(=O)N4CCCC4)CC3)CC2)cc2c1OCO2	-4	nt	107	nt	nt	i	0.9
CCOc1ccc(CC(=O)Nc2sc(Cc3ccccc3)cc2C(N)=O)cc1OCC	3	-1.3	93	-29	101	i	0.9
O=Cc1cn(CC(=O)N2CCCc3ccccc32)c2ccccc12	-4	-0.8	109	-18	86	i	1.1
CCOC(=O)C1Sc2ccccc2NC1=O (stereo not drawn)	6	nt	86	8	64	i	1
CC(C)CC(=O)N1CCN(S(C)(=O)=O)CC1	-8	-0.6	97	nt	nt	i	1
Nc1cc(Br)c(N)c(Br)c1	7	-1.4	97	12	104	i	1
O=C1OCCC1Sc1nc2ccccc2s1 (stereo not drawn)	-3	-0.8	102	-257	73	i	1.1
CCC(=O)NC(Nc1c(C)n(C)n(-c2ccccc2)c1=O)C(Cl)(Cl)Cl (stereo not drawn)	6	nt	100	25	81	i	1
COc1ccc(CCNC(=O)C(=O)NCCOc2ccccc2Cl)cc1OC	3	-0.4	100	-64	98	i	1.1
CC(NS(=O)(=O)c1ccccc1)C(=O)Nc1ccc(S(N)(=O)=O)cc1 (stereo not drawn)	-4	-1.0	101	-205	71	i	0.9
CC(=O)c1c[nH]c(C(=O)NCC2CCCO2)c1 (stereo not drawn)	-11	-2.2	97	-19	103	i	1
COC(=O)c1c(C)[nH]c(C(=O)CC#N)c1C	-6	nt	97	-314	96	?	nt

Some of these compounds in order of SMILES length, high to low.
SMILES	PKD1 inh	GALR2 agonist	RGS16-Gao HTS	Insulin prom inh	Insulin prom inh cell count	HSV replic up	HSV replic up primary fold
COc1cc(CN2CCC(N3CCC(C(=O)N4CCCC4)CC3)CC2)cc2c1OCO2	-4	nt	107	nt	nt	i	0.9
CC(=O)c1c[nH]c(C(=O)NCC2CCCO2)c1 (stereo not drawn)	-11	-2.2	97	-19	103	i	1
CC(C)CC(=O)N1CCN(S(C)(=O)=O)CC1	-8	-0.6	97	nt	nt	i	1
O=C1OCCC1Sc1nc2ccccc2s1 (stereo not drawn)	-3	-0.8	102	-257	73	i	1.1

The list continues.
SMILES	PKD1 inh	GALR2 agonist	RGS16-Gao HTS	Insulin prom inh	Insulin prom inh cell count	HSV replic up	HSV replic up primary fold
CC(=O)Nc1cccc(NC(=O)CSc2ccc(-c3cccnc3)nn2)c1	-3	nt	106	nt	nt	i	0.86
Cc1ccc(NC(=O)Cn2nc(-c3ccccc3)nc2-c2ccccc2)c(C)c1	-2	-0.4	108	2	90	i	1
Cc1ccccc1-c1noc(-c2ccccc2C(=O)NCC2CCCO2)n1 (stereo not drawn)	nt	nt	99	nt	nt	i	1
Cc1cccc(OCCNC(=O)CSc2ccc(C(F)(F)F)cc2[N+](=O)[O-])c1	-4	-2.0	101	30	60	i	0.99
Cc1cc(C)c2nc(-c3ccccn3)cc(C(=O)Nc3ccc(S(=O)(=O)Nc4onc(C)c4C)cc3)c2c1	1	nt	98	21	104	i	0.93
CC1(C)CC(=O)C2=C(C1)NC(=O)CC2c1ccc(N(CCC#N)CCC#N)cc1 (stereo not drawn)	-6	-2.4	102	nt	nt	i	0.89
CCCc1cc(=O)oc2cc(C)c(CN3CCCC3)c(O)c12	-2	-1.3	112	-10	106	nt	nt
CCOC(=O)C1(Cc2cccc(Cl)c2)CCCN(C(=O)CCOC)C1 (stereo not drawn)	-1	nt	97	nt	nt	i	0.98
COc1ccc(CN2C(=O)c3ccccc3C2=O)cc1C(=O)Nc1ccccc1N1CCOCC1	-8	nt	104	nt	nt	i	0.94
CCCCn1nc2cc(C(=O)NC3CCc4ccccc43)ccc2c1OCC (stereo not drawn)	-4	-0.9	100	27	92	i	1
Cc1ccc(S(=O)(=O)c2nc(N3CCOCC3)sc2Cl)cc1	-3	-2.2	105	14	92	i	0.82
Cc1nnc(NC(=O)C2CCCN2S(=O)(=O)c2ccc(Cl)cc2)s1 (stereo not drawn)	-12	nt	101	nt	nt	i	0.99
Cc1ccc(NC(=O)CSc2ccccc2NC(=O)c2ccccc2Cl)cc1Cl	-2	-0.9	102	14	146	i	0.86
COC(=O)c1ccc(/C=C2\N=C(SC)SC2=O)cc1	-2	-0.7	94	-194	113	i	1
CC(C)n1cc(/C=N/NC(=O)COc2cccc3cccnc23)c2ccccc21	2	-0.2	100	nt	nt	i	1
Cc1ccc(OCC(=O)Nc2ccc(N3CCN(C(=O)c4ccco4)CC3)cc2)cc1	-7	nt	97	45	85	i	0.96
COc1cc2cc(CN(CCCN3CCOCC3)C(=O)Nc3ccccc3F)c(=O)[nH]c2cc1OC	-1	nt	100	nt	nt	i	1
Cc1ccc(C(=O)OCC(=O)NCC(F)(F)F)cc1C	-3	-0.7	37	27	70	i	0.84
Cc1cc(C)c(C(=O)Cn2nc(C)c([N+](=O)[O-])c2C)cc1C	7	nt	98	-17	69	i	0.92
COC(=O)Nc1ccc(S(=O)(=O)N2CCCCC2)cc1	-7	-1.3	100	-25	91	i	0.91
O=C(C/C=N/OCc1ccc(Cl)cc1Cl)c1ccc(Cl)cc1	-8	-2.8	100	9	67	i	1.2
c1ccc(Oc2ccc(-c3ccn[nH]3)cc2)cc1	nt	nt	88	nt	nt	i	0.99
CCc1nnc(NC(=O)CSc2nc(C3CCCCC3)nc3ccccc23)s1	-9	-0.9	107	33	109	i	0.78
COc1ccccc1CCNCc1ccc(OC)c(OCc2ccccc2)c1	-3	-0.7	102	-35	112	i	0.85
CCN=C1SC(C(=O)Nc2cc(Cl)cc(Cl)c2)CC(=O)N1CC (stereo not drawn)	3	nt	104	nt	nt	i	0.99
COC(=O)c1ccc(CSc2nnc(N)s2)o1	4	nt	109	nt	nt	i	0.95
COc1cc2cc(CN(CCc3cccc(C)c3)C(=S)NCCCN3CCOCC3)c(=O)[nH]c2cc1OC	-1	nt	113	-43	85	i	0.88

Bioassay records deposited in PubChem by several laboratories.
